# StopGo FLuc: lowers the firefly signal of an FMDV 2A StopGo reporter; AID 1745856; 120,000 compounds, 0.23% hits; HEK cells with a luciferase reporter of 2A StopGo recoding; Potency, µM (series often up to 57.5 µM), for inactives: top-dose signal change, negative = less light; active = well fitted falling curve with a large enough effect; inconclusive = small, poorly fitted or top-dose-only effect; inactive = no such curve, though single readings can be large or run the other way; also: nearly all actives have a fitted effect of over 60% in size; overnight with compound
# 2A Renilla: lowers the Renilla signal of an FMDV 2A StopGo reporter. HEK cells with a luciferase reporter of 2A StopGo recoding. Potency, µM (doses to about 57.5 µM), inactives show at the highest dose signal change, negative = less light. 120,000 compounds, 0.32% hits. AID 1745857; active means well fitted falling curve with a large enough effect; inconclusive means small, poorly fitted or top-dose-only effect; inactive means no such curve, though single readings can be large or run the other way; also: nearly all actives have a fitted effect of over 55% in size; overnight with compound
# * hit, by the source's call; ? = inconclusive; & = joins results of further samples; [ ] = another dose, or the depositor's remark. % is scaled to controls: 0 for no effect and ±100 for the full control effect; potency is read from the fitted curve at half-maximal effect. Some of the compounds tested; the hit share may differ from the screen's.
Structure	2A Renilla	StopGo FLuc
Cc1cc(C(=O)COC(=O)c2nn(C)c(=O)c3ccccc23)c(C)n1CC(F)(F)F	-7.3%	11.0%
CN(Cc1ccc(C(C)(C)C)cc1)C(=O)CNC(N)=O	7.3%	18.6%
COc1cc(C)c(S(=O)(=O)n2nnc3ccccc32)cc1C	0.9%	6.3%
O=[N+]([O-])c1cccc2ccc(/C=C/c3ccccc3)nc12	-17.3%	194.7%[activator]
CC1(C)CCc2c(ccc3ccc(=O)oc23)O1	17.1%	63.9%[activator]
CCCC(C)NC(=O)CSCc1coc(-c2ccc(Cl)cc2)n1 (stereo unspecified)	?	?
CCc1ccc(C2CC(=O)N(c3cccc(C(F)(F)F)c3)C3=C2C(=O)OC3)cc1 (stereo unspecified)	-8.8%	0.0%
CCOC(=O)N1CCN(Cc2nc3cc(NC(=O)c4ccc([N+](=O)[O-])cc4)ccc3n2C(C)C)CC1	-19.9%	-15.6%
OCCN(CCO)CC(O)COc1ccc2ccccc2c1 (stereo unspecified)	2.1%	53.4%[activator]
O=C(Nc1cc(-c2nc3cc(Cl)ccc3o2)ccc1Cl)c1cccc2ccccc12	-5.2%	60.4%[activator]
N#Cc1c(N)nc2c(c1-c1ccccc1Cl)CCCC2	-7.0%	5.2%
Cc1ccc(C(C)C)c(O)c1	-7.3%	-11.3%[11.5 µM]

# As a short view, part of the list above.
Structure	2A Renilla	StopGo FLuc
Cc1cc(C(=O)COC(=O)c2nn(C)c(=O)c3ccccc23)c(C)n1CC(F)(F)F	-7.3%	11.0%
CN(Cc1ccc(C(C)(C)C)cc1)C(=O)CNC(N)=O	7.3%	18.6%

# (cont.)
Structure	2A Renilla	StopGo FLuc
Cc1cccc(C(=O)NC(Nc2cccc(C(F)(F)F)c2)C(Cl)(Cl)Cl)c1 (stereo unspecified)	-14.4%	-25.0%
CCc1ccc(NC(=O)Cn2c(=O)c(CNc3ccccc3)cc3cc(OC)c(OC)cc32)cc1	-13.2%	29.5%
CC(C)=CC(=O)Nc1sccc1C#N	-4.6%	0.0%
CC(NC(=O)c1ccc2c(c1)NC(=O)CS2)c1ccc2c(c1)OCO2 (stereo unspecified)	58.9%[activator]	15.6%
CCc1ccccc1NC(=O)CSC1=Nc2ccccc2C2=NC(Cc3ccccc3)C(=O)N12 (stereo unspecified)	15.4%	-11.1%
CCNC(=O)Cn1nc(C)n2c(cc3c(OC)cccc32)c1=O	-15.1%	-12.7%
Nc1nccnc1C(=O)Nc1ccc(SCc2cccnc2)cc1	?	-48.2%
Cc1ccc(/C=C(/C#N)c2nc3ccccc3[nH]2)c(C)c1	132.3%[activator]	215.6%[activator]
CCOCCCn1c(SCC(=O)NCCCOC)nc2c(sc3ccccc32)c1=O	-22.6%	16.5%
c1cncc(CNCCCn2ccnc2)c1	3.5%	0.2%
COc1cc(Cl)c(C)cc1NC(=O)CSc1cc(-c2ccccc2)nc(C)n1	-11.3%	-14.0%
Cc1ccc(C(=O)COC(=O)C2CC(=O)N(c3ccccc3)C2)cc1 (stereo unspecified)	-14.3%	-10.3%
CCn1c(SCC(=O)NC(C)c2ccccc2C)nnc1C1CC1 (stereo unspecified)	5.9%	21.6%
Cc1ccc2oc(=O)c(S(=O)(=O)c3ccc(C(C)(C)C)cc3)cc2c1	-10.6%	-14.2%
O=C(Cn1c(=O)c2cccn2c2ccc(F)cc21)N1CCN(c2ccccc2)CC1	-8.0%	-18.1%
COCCCn1c(=N)c(S(=O)(=O)c2ccccc2)cc2c(=O)n3cccc(C)c3nc21	-1.2%	-3.6%
O=C(Nc1noc2ccccc12)c1cccc(F)c1	0.0%	91.2%[activator]
COc1ccc(S(=O)(=O)N2CCC(C(=O)Nc3cc(C(F)(F)F)ccc3Cl)CC2)cc1	4.4%	-11.5%
CCC1(C)NC(=O)N(NC(=O)CCc2c[nH]c3ccccc23)C1=O (stereo unspecified)	8.3%	0.0%
NCCC12CC3CC(C1)CC(C(=O)O)(C3)C2	-8.9%	-16.5%
Cc1nn(CC(=O)NCCc2ccccc2)c(=O)c2nn(-c3ccccc3)c(C)c12	-19.3%	6.3%
Cc1ccccc1CC(=O)N1CCN(C(C)c2nc(C3CC3)no2)CC1 (stereo unspecified)	6.1%	4.0%
COc1cc(Cl)c(C)cc1NC(=O)C(C)N1CCN(CCc2ccccc2)CC1 (stereo unspecified)	-11.7%	0.1%
O=C(CSc1nc2ccccc2nc1N1CCCC1)Nc1ccc(F)cc1	78.8%[activator]	22.9%
CCOC(=O)c1ccc(NC2=CC(c3ccc(F)cc3)N(c3ccc(C(=O)OCC)cc3)C2=O)cc1 (stereo unspecified)	-8.1%	-6.6%
CCc1ccc(-n2c(SC(CC)C(=O)N(CC)CC)nc3n[nH]c(C)c3c2=N)cc1 (stereo unspecified)	-4.0%	-21.5%
Cc1ccc(-c2nc(S(=O)(=O)c3ccccc3)c(SCC(=O)NC3CCCCC3)o2)cc1	42.7%[activator]	-8.1%
CCOc1ccc(CNC(=O)c2cnc3sc(N(CC)CC)nn3c2=O)cc1OC	-9.1%	-9.4%
O=C(CCn1cnc2onc(-c3ccc(F)cc3)c2c1=O)Nc1ccc(F)c(Cl)c1	4.6%	1.8%
NC1=NC(c2cccc(Oc3ccccc3)c2)n2c(nc3ccccc32)N1 (stereo unspecified)	-22.7%	-13.6%
COc1ccc(O)cc1	0.0%	-8.1%[11.5 µM]
Cc1ccc2nc(/C(C#N)=C/c3cccc(Br)c3)[nH]c2c1	199.1%[activator]	123.5%[activator]
COc1ccccc1-c1cnn2c1NC(=O)CC2C(=O)Nc1ccc(F)cc1 (stereo unspecified)	12.0%	6.1%
Cc1ccccc1C(=O)Nc1ccc2oc(-c3ccc(Cl)c(Cl)c3)nc2c1	-10.8%	5.0%
N#Cc1ccc(C(=O)OCCOc2cccc(Cl)c2)cc1	1.7%	16.4%
COP(=O)(OC)c1nc(-c2cccc3ccccc23)oc1N1CCOCC1	7.1%	3.0%
N#Cc1ccc(OCCOC(=O)C2CC3CCCC(C2)C3=O)cc1 (stereo unspecified)	0.7%	3.8%
CCn1ccc2cc(S(=O)(=O)N3CCC(C(=O)NCc4ccc(OC(C)C)cc4)CC3)ccc21	-1.2%	-18.3%
CC(C)Oc1ccc(C(=O)N(Cc2ccc(N(C)C)cc2)C2CCS(=O)(=O)C2)cc1 (stereo unspecified)	-2.3%	-9.5%
Cc1ccc(Nc2nc(CN3CCN(S(=O)(=O)c4ccc(C)cc4)CC3)cs2)cc1	?	?
CC(C)(C)OC(=O)N1CCC(c2c(C(=O)N3CCN(c4ncccn4)CC3)cnn2-c2ccc(F)cc2F)CC1	-13.1%	-6.6%
O=C(CCc1ncc(-c2ccc(F)cc2)o1)Nc1ccccc1N1CCOCC1	-10.7%	91.3%[activator]
O=C(CCC(=O)c1ccc(F)cc1)OCC(=O)c1ccc([N+](=O)[O-])cc1	2.9%	8.0%
COC(=O)CNC(=O)C12CC3CC(C1)CC(c1ccccc1)(C3)C2	2.8%	0.5%
COc1cccc(/C=C(/C#N)c2ccc(C(F)(F)F)cn2)c1	7.2%	107.1%[activator]
O=S1(=O)CCN(Cc2cccc(Br)c2)c2c(F)nc(N3CCOCC3)c(F)c21	13.4%	6.5%
COc1ccc(OC)c(NC(=O)C2CCN(S(=O)(=O)c3ccc4c(c3)CC(C)N4C(C)=O)CC2)c1 (stereo unspecified)	-1.7%	-16.1%
COc1ccccc1CNC(=O)Cn1nc(C)c2nn(-c3ccc(Cl)cc3)c(C)c2c1=O	-10.9%	5.0%
N#Cc1cccc(NC(=O)CSc2nnc(Cc3ccccc3)o2)c1	-3.6%	7.6%
Cc1ccc2c(C)c(CCC(=O)N(C)c3ccccc3)c(=O)oc2c1	-6.2%	18.2%
COc1cccc(C2CC(=O)Nc3c2c(=O)[nH]c2nc4ccccc4n32)c1 (stereo unspecified)	-14.2%	-7.9%
Cc1ccc(-n2ncc(C(=O)N3CCN(C4CCCCC4)CC3)c2C2CCN(C(=O)OC(C)(C)C)CC2)cc1C	-6.2%	-11.7%
O=C(CSc1nnc(C2CC2)n1C1CC1)c1c[nH]c(C(=O)N2CCCC2)c1	64.1%[activator]	13.1%
COc1ccc(-n2c(C)c(C(C)=O)c3cc(OC(=O)COc4ccccc4)ccc32)cc1	-16.8%	?
CN1CCN(C(=O)Cn2ncc3c4ccccc4n(Cc4ccc(F)cc4)c3c2=O)CC1	2.1%	3.8%
OC(c1ccccc1)(c1ccccc1)C1CCNCC1	-10.1%	-18.7%
Cc1ccc(-c2nc3ccc(Br)cn3c2Nc2ccc3c(c2)OCO3)o1	-16.6%	3.1%
Cc1cccc(N(C)C(=S)Oc2ccc3c(c2)C2CCC3C2)c1 (stereo unspecified)	13.0%	23.2%
CCn1cc(C(=O)N2CCN(c3ccccc3)CC2)c(=O)c2cc(S(=O)(=O)N3CCC(C)CC3)ccc21	7.3%	-20.0%
[O-][n+]1ccccc1SCc1nc2ccccc2c2ccccc12	36.7%[activator]	60.0%[activator]

# Following part:
Structure	2A Renilla	StopGo FLuc
CSc1ccc(CCNC(=O)c2ccc(-n3c(C)cc4c3CCCC4)cc2)cc1	-17.8%	11.9%
Cc1cc2ccccc2[nH]1	3.6%	0.1%
Cc1ccc(-n2ccnc2SC2CCCCC2=O)cc1C (stereo unspecified)	44.2%[activator]	87.7%[activator]
CN(C)S(=O)(=O)N1CCN(C(=O)Cc2ccc(Cl)cc2Cl)CC1	-3.6%	13.3%
O=C(CSc1nnc(NCc2ccc(F)cc2)s1)Nc1ccnn1C1CCCC1	-1.2%	10.7%
O=C(NC1CCCc2ccccc21)c1cc2c(s1)CCC2 (stereo unspecified)	57.0%[activator]	71.1%[activator]
COc1cc(/C=N/NC(=O)Cc2cccc(C(F)(F)F)c2)ccc1OCc1ccccc1	9.1%	47.3%[activator]
Cc1ccc(C)c(-c2cc(C(=O)Nc3nncs3)c3ccccc3n2)c1	8.1%	11.9%
CCN(CC(=O)NC(C)(C)C)c1nc(C(F)(F)F)nc2ccccc12	-3.8%	1.4%
CC(=O)N1CCN(c2oc(/C=C/c3ccccc3Cl)nc2C#N)CC1	3.5%	17.4%
Cc1nn(CC(=O)Nc2ccc(Br)cc2Cl)c(=O)c(C#N)c1C	-8.7%	-3.2%
O=C(c1ccc2ncsc2c1)N(Cc1ccco1)Cc1cccs1	155.9%[activator]	26.9%
O=C(Cn1c(=O)c2ccccc2n(CC(=O)Nc2ccc(F)cc2)c1=O)NCCc1ccccc1	-14.0%	-4.6%
Cc1ccc(/C=N/NC(=O)c2cccc(N(C)C)c2)cc1	62.2%[activator]	125.5%[activator]
O=C(CN1CCN(Cc2ccc(F)cc2Cl)S1(=O)=O)Nc1ccc(F)cc1	-9.6%	-17.6%
C[C@]12CC[C@H]3[C@@H](CCC4=CC(=O)CC[C@@H]43)[C@@H]1CC[C@@H]2OC(=O)CCc1ccccc1	-9.4%	-10.0%
COc1ccc(S(=O)(=O)c2c(C(=O)c3ccc(C)c(C)c3)cnc3ccc(F)cc23)cc1	-10.7%	-1.0%
O=C(Nc1ccc(O)c(-c2nc3ccccc3o2)c1)c1ccccc1F	-12.3%	4.4%
CCOCCCn1c(SCC(=O)NCc2ccccc2)nc2c(sc3ccccc32)c1=O	-15.9%	-16.6%
N#Cc1c(N)[n+]([O-])c2ccccc2[n+]1[O-]	-19.9%	4.7%
Cc1ccc(/C(COc2ccc3c(C)c(Cc4ccccc4)c(=O)oc3c2C)=N/O)cc1	3.4%	-0.7%
O=C(NCc1ccncc1)c1nc(Cc2c[nH]c3ccccc23)no1	-4.0%	13.9%
Cc1scc(CN2CCN(c3ccc(F)cc3)CC2)c1C	-9.7%&-9.0%	5.9%&-7.3%
CCOc1ccc(C(=O)Nc2ccc3nc4c(c(Nc5ccccc5OC)c3c2)CCCC4)cc1	-0.3%	-5.0%
Cc1oc(-c2cccs2)nc1CC(=O)Nc1ccccc1C(C)(C)C	14.3%	-7.4%
CCC(=O)Oc1ccc2c(=O)c(-c3ccc(Cl)cc3)c(C)oc2c1	-3.7%	104.5%[activator]
CC(C)(C)C(=O)NCCNC(=O)c1nc2ccccc2c(=O)[nH]1	-6.0%	12.6%
COc1cccc(-c2ccc3c(N)c(C(=O)Nc4ccccc4C)sc3n2)c1	-11.7%	19.9%
CCCCn1cc(S(=O)(=O)c2ccc(OC)cc2)c(=O)c2cc(F)c(F)cc21	-0.9%	-15.9%
C=Cc1ccc(Cn2c(C(=O)OC)cc3sc(C)cc32)cc1	30.6%[activator]	0.0%
COc1ccc(S(=O)(=O)Oc2ccc3c(c2)O/C(=C\c2cc(OC)ccc2OC)C3=O)cc1	11.0%	8.2%
COc1ccc2nc(N3C(=O)C(O)=C(C(=O)c4ccco4)C3c3cccc(OC)c3OC)sc2c1 (stereo unspecified)	107.6%[activator]	97.9%[activator]
CCOc1ccc(C(=O)Nc2ccc3oc(C)nc3c2)cc1OCC	?	0.0%
CC(C)c1nnc2ccc(NCc3ccc(F)cc3)nn12	27.3%	22.1%
c1ccc(-c2cc(-c3ccccc3)[o+]c(-c3ccccc3)c2)cc1	?	?
COc1cccc(C2/C(=C(\O)c3ccc4c(c3)OCCO4)C(=O)C(=O)N2CCc2ccccc2)c1 (stereo unspecified)	17.0%	125.2%[activator]
COc1ccc(CCNC(=O)c2cc3c(=O)n(C)c4ccccc4c3s2)cc1OC	1.4%	-13.8%

# Screens: PubChem, National Center for Advancing Translational Sciences (NCATS)
